Mtb bLac sens: beta-lactam sensitization of Mtb H37Rv | inhibition, % at 25 µM | hit rate 0.27% among 330,000 | M. tuberculosis H37Rv growth with meropenem, percent inhibition; hits of this screen are not shown here | AID 434955;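 active = about 74% or more and at least 40 points above the plate without the antibiotic, then above 30% in a dose series; inconclusive = first-round hits that could not be retested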;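 note: growth measured after seven days incubation then overnight dye step; 0% = bacteria only wells and 100% = bacteria with antibiotic; twin plates without the antibiotic show which effects depend on it; some results filed as inactive read as strong as hits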
Arbovirus anti: antivirals against arbovirus infection. hit rate 0.37% among 200,000. arbovirus infection cell-based antiviral screen. inhibition, % at 10 µM. AID 1251;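 active = inhibition from about 30%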;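 note: bluetongue infection of BSR cells; cell survival read as ATP light after 72 h; 0% = infected wells without compound and 100% = uninfected wells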
RecA intein inh: Mtb RecA intein splicing inhibition | P9WHJ3 | cell-free RecA intein splicing, fluorescence | inhibition, %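 (about 9 µM by stock and volumes)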 | hit rate 0.75% among 290,000 | AID 2221; in the data active = inhibition above about 30%; inconclusive = no clear call, values can overlap the other calls;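 note: 0% = vehicle wells and 100% = reference inhibitor control wells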
Target sequence (P9WHJ3 whole entry, looked up): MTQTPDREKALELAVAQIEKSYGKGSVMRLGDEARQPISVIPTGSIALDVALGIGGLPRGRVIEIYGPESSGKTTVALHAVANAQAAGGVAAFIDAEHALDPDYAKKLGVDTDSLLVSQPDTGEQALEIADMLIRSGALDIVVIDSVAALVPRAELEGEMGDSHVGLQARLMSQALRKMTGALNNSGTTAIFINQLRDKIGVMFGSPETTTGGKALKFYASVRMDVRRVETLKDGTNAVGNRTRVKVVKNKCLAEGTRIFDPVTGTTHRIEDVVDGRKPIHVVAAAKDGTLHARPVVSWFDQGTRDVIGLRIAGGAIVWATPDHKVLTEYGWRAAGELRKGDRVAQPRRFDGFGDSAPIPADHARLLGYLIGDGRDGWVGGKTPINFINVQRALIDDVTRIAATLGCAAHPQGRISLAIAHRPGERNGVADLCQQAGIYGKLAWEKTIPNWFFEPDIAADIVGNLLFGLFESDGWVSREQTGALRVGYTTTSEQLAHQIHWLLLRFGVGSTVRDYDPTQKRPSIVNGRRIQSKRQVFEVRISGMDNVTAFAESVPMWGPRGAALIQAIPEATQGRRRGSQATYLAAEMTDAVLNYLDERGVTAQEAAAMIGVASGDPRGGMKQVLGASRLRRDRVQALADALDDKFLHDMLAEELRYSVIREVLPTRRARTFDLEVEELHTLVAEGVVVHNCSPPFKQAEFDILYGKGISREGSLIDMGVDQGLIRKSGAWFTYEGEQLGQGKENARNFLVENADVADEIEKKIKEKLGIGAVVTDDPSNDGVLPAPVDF
Mtb growth: M. tuberculosis H37Rv growth inhibitors, H37Rv strain (AID 1626). M. tuberculosis H37Rv growth inhibition; higher % means a stronger effect. inhibition, % at 10 µM; hits with a dose series show IC50 in µM. hit rate 0.95% among 220,000;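 active = confirmed in a dose series; inconclusive = inhibition above 80% but not taken into the dose series; inactive = below 80% or under 30% at every dose of the series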;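 note: bacteria incubated seven days before Alamar blue readout; 0% = bacteria only wells and 100% = bacteria with antibiotic wells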
YopH inh: YopH (Yersinia) phosphatase inhibition; fluorescence Ex485/Em525; inhibition, %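 (about 10 µM by stock and volumes)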; hit rate 0.16% among 140,000;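 active = inhibition of 50% or more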;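 note: controls were vehicle for no effect and minimum signal wells for full effect; inactives centre near -20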
Arbovirus anti repeat: also measured in Arbovirus anti; calls as there; inhibition, %; measured here: 10K subset replicate screen; many hits read low in the repeat;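 first of two repeat runs on a subset; 0% = infected and 100% = uninfected wells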
Starred values were filed as active, the others as inactive; ? = inconclusive; / = no result given.

SMILES | Mtb bLac sens | Arbovirus anti | RecA intein inh | Mtb growth | YopH inh | others
Cc1cccc(OCC(=O)Nc2ccccc2N2CCCCC2)c1 | 20 | -25 | 12 | 0% | -42
O=C1C(Cl)=C(Nc2ccccc2)C(=O)c2ccccc21 | 1 | -36 | 2.2 | -1% | -19
COCCNC(=O)CN(C(=O)CCC(=O)Nc1ccccn1)c1ccccc1OC | 3 | / | 0.9 | / | /
COC(=O)CSc1nc(N2CCCCC2)c2c(c1C#N)CCCC2 | 100 | 7 | 18 | 77% | -8
COc1cccc(NC2=NC3(CCCCC3)N=C(N)N2)c1 | -6 | 1 | -0.1 | -11% | -18
COc1cccc(CN2CCNC(=O)C2CC(=O)N(C)CC2CCOCC2)c1 (stereo not given) | -13 | / | -0.1 | / | /
Cn1c(OCc2ccc3c(c2)OCO3)nc2c1c(=O)n(Cc1ccc(Cl)c(Cl)c1)c(=O)n2C | -6 | -8 | 3.2 | / | -21
COc1ccccc1NS(=O)(=O)c1cccc(C(=O)N/N=C/c2ccccc2OCC(=O)O)c1 | 4 | 2 | -0.3 | -6% | /
Cc1cccc(NC(=S)N(CCc2nc3cc(C)c(C)cc3[nH]2)Cc2cccnc2)c1 | 5 | 0 | 1.8 | 0% | -27
O=C(c1ccc(C(=O)N2CCN(c3ccccc3F)CC2)nc1)N1CCN(c2ccccc2F)CC1 | -5 | / | -2.2 | -8% | /
Cc1ccc(S(=O)(=O)N2CCN(C(=O)c3ccc4nc[nH]c4c3)CC2)cc1 | -2 | / | 4.3 | / | /
COc1ccc(N2C(=O)N3[C@H](c4ccc(Br)cc4)[C@@H]4C(=O)N(C(C)(C)C)C(=O)[C@@H]4[C@]3(Cc3ccccc3)C2=O)cc1 | -8 | / | 3.8 | / | /
COc1ccccc1N1CCN(C(=O)CCn2c(=O)[nH]c3ccccc3c2=O)CC1 | 3 | -6 | -1.1 | -3% | -59
CCOC(=O)Nc1ccc2c(c1)N(C(=O)CCN1CCN(CCO)CC1)c1ccccc1S2 | -9 | / | -1.3 | -5% | 7
CC1=NOC(=O)/C1=C\c1ccc(-c2ccccc2Br)o1 | / | -23 | -0.5 | -5% | /
Cc1nn(C)c(C)c1C1C(C#N)=C(N)OC2=C1C(=O)CCC2 (stereo not given) | 88 | 6 | -4.5 | 4% | -5
COc1ccc(NC(=O)c2ccc(NC3=NC4CS(=O)(=O)CC4S3)cc2)cc1 (stereo not given) | 1 | / | -0.5 | / | /
O=C(NCCc1ccc(Cl)cc1)C(=O)Nc1cc2c3c(c1)CC(=O)N3CCC2 | 2 | / | -0.2 | / | /
COc1ccc(NC(=O)Nc2ccon2)c(OC)c1 | 1 | -1 | 1.7 | -5% | /
COc1ccc(CCNC(=O)c2cc(=O)[nH]c3ccc(Br)cc23)cc1OC | 6 | -5 | 1.5 | 3% | -14
Cc1ccc(-c2noc(CN(C(=O)C34CC5CC(CC(C5)C3)C4)C(C)C)n2)cc1 | 3 | -2 | -1.4 | 0% | -34
Cc1nc2c3ccccc3n(CCN3CCCCC3)c2s1 | 1 | -4 | -1.8 | / | -13
CCc1nnc(SCC(=O)Nc2ccccc2)nc1CC | 2 | -3 | 1.1 | -9% | -47
O=C(Nc1nnc(SCC(=O)N2CCCCC2)s1)c1cccs1 | -6 | 0 | 2.6 | -8% | -43
COc1ccc(C(OCC2CO2)c2ccc(OC)cc2)cc1 (stereo not given) | -10 | 1 | 9.5 | 0% | /

Part of the list above in order of SMILES length, high to low:
SMILES | Mtb bLac sens | Arbovirus anti | RecA intein inh | Mtb growth | YopH inh | others
COc1ccc(N2C(=O)N3[C@H](c4ccc(Br)cc4)[C@@H]4C(=O)N(C(C)(C)C)C(=O)[C@@H]4[C@]3(Cc3ccccc3)C2=O)cc1 | -8 | / | 3.8 | / | /
Cn1c(OCc2ccc3c(c2)OCO3)nc2c1c(=O)n(Cc1ccc(Cl)c(Cl)c1)c(=O)n2C | -6 | -8 | 3.2 | / | -21
COc1ccccc1NS(=O)(=O)c1cccc(C(=O)N/N=C/c2ccccc2OCC(=O)O)c1 | 4 | 2 | -0.3 | -6% | /
Cc1ccc(-c2noc(CN(C(=O)C34CC5CC(CC(C5)C3)C4)C(C)C)n2)cc1 | 3 | -2 | -1.4 | 0% | -34
Cc1cccc(NC(=S)N(CCc2nc3cc(C)c(C)cc3[nH]2)Cc2cccnc2)c1 | 5 | 0 | 1.8 | 0% | -27
COc1ccc(NC(=O)c2ccc(NC3=NC4CS(=O)(=O)CC4S3)cc2)cc1 (stereo not given) | 1 | / | -0.5 | / | /
COc1ccc(CCNC(=O)c2cc(=O)[nH]c3ccc(Br)cc23)cc1OC | 6 | -5 | 1.5 | 3% | -14
COc1cccc(CN2CCNC(=O)C2CC(=O)N(C)CC2CCOCC2)c1 (stereo not given) | -13 | / | -0.1 | / | /
COC(=O)CSc1nc(N2CCCCC2)c2c(c1C#N)CCCC2 | 100 | 7 | 18 | 77% | -8
O=C1C(Cl)=C(Nc2ccccc2)C(=O)c2ccccc21 | 1 | -36 | 2.2 | -1% | -19
Cc1cccc(OCC(=O)Nc2ccccc2N2CCCCC2)c1 | 20 | -25 | 12 | 0% | -42
COc1ccc(C(OCC2CO2)c2ccc(OC)cc2)cc1 (stereo not given) | -10 | 1 | 9.5 | 0% | /
Cc1nc2c3ccccc3n(CCN3CCCCC3)c2s1 | 1 | -4 | -1.8 | / | -13
CCc1nnc(SCC(=O)Nc2ccccc2)nc1CC | 2 | -3 | 1.1 | -9% | -47

(cont.)
SMILES | Mtb bLac sens | Arbovirus anti | RecA intein inh | Mtb growth | YopH inh | others
COc1cccc(/C=C/C(=O)N2CCN(c3ccccn3)CC2)c1 | -11 | / | 0.4 | / | /
CCC(C(=O)c1ccc2ncccc2c1)c1ccccc1 (stereo not given) | 8 | 6 | / | 4% | -26
COC(=O)c1nnn(CC(=O)Nc2cccc(Cl)c2C)c1C(=O)OC | -5 | 3 | -4.8 | -13% | 1
CCC(=O)c1ccc2c(c1)N(CCCN(C)C)c1ccccc1S2 | 6 | / | 0.1 | -3% | /
CC(=O)c1cccc(NC(=O)c2ccc(N(Cc3ccccc3)S(C)(=O)=O)cc2)c1 | -1 | -3 | 1.2 | -6% | 3
COc1ccc(C(CC(=O)Nc2ccc(C)cn2)N2Cc3ccccc3C2=O)cc1 (stereo not given) | 6 | / | -0.3 | / | /
COc1cccc(N(C(=O)CNC(=O)c2ccco2)C(C(=O)NC2CCCC2)c2ccncc2)c1 (stereo not given) | 3 | 3 | -1.2 | 6% | 7
Cc1cccc(N(C)C(=O)c2cc3cc4ccc(C)cc4nc3o2)c1 | / | -9 | 2.6 | 2% | 14
Cn1c(=O)c2c(nc(NCCCO)n2Cc2cccc(C(F)(F)F)c2)n(C)c1=O | 0 | 7 | -1.9 | -61% | 38
Cc1cccc(/C=N/NC(=O)c2cccc(NC(=O)c3ccccc3)c2)n1 | -9 | / | 0.6 | / | /
Cc1ccc(Cn2cccc2C2=NC(C)CO2)cc1 (stereo not given) | -12 | 7 | / | -8% | 4
CN(CCCN1CCOCC1)C(=O)c1cc(COc2c(F)cccc2F)on1 | ? | / | 2.7 | / | /
CCn1c(SCC(N)=O)nnc1-c1ccc2[nH]c(C)c(C)c2c1 | 4 | 2 | -0.4 | -1% | 22
CN(C)c1ccc(NC2=C(Cl)C(=O)c3ccccc3C2=O)cc1 | 12 | -32 | 29 | 9% | -21
CC(=O)N1c2ccc(S(=O)(=O)NCCC(=O)NCCc3ccc(Cl)cc3)cc2CC1C (stereo not given) | -1 | / | 1.7 | / | /
Cc1ccc(OCC(=O)N/N=C/c2cccnc2)cc1C | -8 | / | -1.4 | / | /
S=C(Nc1cccc(Br)c1)N1CCn2cccc2C1c1cccnc1 (stereo not given) | 4 | 22 | 5.5 | -6% | /
Cc1ccc(Cl)cc1Nc1nc(-c2sc(NC(=O)c3ccccc3)nc2C)cs1 | -7 | -22 | -0.2 | -1% | 14
C=CCO/N=C(/C)c1c(O)c(CC)c(-c2ccccc2)n(-c2ccccc2)c1=O | 3 | 8 | 9.4 | 8% | -41
Cc1[nH]nc(Nc2ccccc2)c1[N+](=O)[O-] | -1 | 4 | 0.3 | -9% | 16
CC1(c2ccccc2)NC(=S)N2C1NC(=S)N2c1ccccc1 (stereo not given) | -7 | 2 | -2.6 | / | -34
CCC(C(=O)NC1CCCC1)N(C(=O)c1snc(C(N)=O)c1N)c1ccc(C)cc1C (stereo not given) | -3 | / | -7.1 | / | /
CNC(=O)CN(c1ccc(Oc2ccccc2)cc1)S(=O)(=O)c1ccc(C)cc1 | 0 | / | -1.5 | / | /
COC(=O)CSc1nc2sc(C)c(C)c2c(=O)n1C | 0 | 6 | 0.9 | -1% | -48
CC(C)[C@H](NC(=O)N1c2ccccc2NC(=O)[C@@H]1C(C)C)C(=O)N[C@H](C(=O)O)c1ccccc1 | -2 | / | -0.3 | / | /
More structures
SMILES | Mtb bLac sens | Arbovirus anti | RecA intein inh | Mtb growth | YopH inh | others
CCOC(=O)c1cc(NC(=O)COc2ccc([N+](=O)[O-])cc2)cc(C(=O)OCC)c1 | 6 | 3 | 0.1 | 0% | -23
COc1ccc(CNc2ncnc3cc(Cl)ccc23)cc1 | 95 | 18 | -0.7 | 58µM* | /
O=C(CNC(=O)c1cccs1)N/N=C/c1c[nH]c2ccccc12 | 1 | 1 | 1.1 | 1% | /
COc1ccc(Br)cc1Cn1nnc(C(=O)Nc2ccc3c(c2)OCCO3)c1N | 5 | / | 2.2 | / | /
COc1ccccc1-c1c(C)c(C)nc(N)c1C#N | -2 | 1 | -2.2 | -8% | -15
CC(=O)Oc1c2occc2cc2ccc(=O)oc12 | 14 | -5 | -2.0 | -10% | 11 | Arbovirus anti repeat=2
C=CCSC1=NN2CCS(=O)(=O)N=C2S1 | -4 | 1 | 5.3 | 2% | /
Cc1oc(-c2ccccc2F)nc1CS(=O)(=O)CC(=O)NCCCN1CCN(C)CC1 | 2 | / | -1.0 | / | /
CCCNCc1cc(OC)c(OCc2ccccc2)cc1Br | -6 | -3 | 5.2 | 7% | /
O=c1c2oc3ccccc3c2[nH]c(=S)n1-c1ccc(F)cc1 | -4 | -3 | -0.3 | -5% | /
Cc1nn(Cc2ccccc2Cl)c(Cl)c1/C=C/C(=O)OCC(=O)NC(N)=O | 11 | -5 | -0.8 | 4% | 3
O=C(c1ccccc1)N1CC(COc2ccccc2)OC(c2cccnc2)O1 (stereo not given) | -6 | -6 | 1.7 | -2% | -35
O=C(Nc1nc(-c2cccs2)c(C(=O)C(F)(F)F)s1)c1ccccc1 | 0 | -14 | 13 | / | -22
O=C(NCc1ccccn1)Nc1ccc(Br)cc1 | -17 | / | -2.0 | / | /
O=C(NCCc1ccncc1)Nc1ccccc1 | -8 | -3 | 0.0 | -4% | -18
Nc1nc(CN2CCN(Cc3ccccc3)CC2)nc(Nc2ccccc2)n1 | / | -3 | 1.6 | -1% | -13
O=S(=O)(c1ccccc1Br)N1CCN(c2ncccn2)CC1 | -1 | / | -0.8 | / | /
CCN1CCc2c(sc(NC(=O)COc3ccccc3)c2C(=O)OC)C1 | 58 | / | -1.2 | / | /
CS(=O)(=O)N(CC(=O)NCCSCc1cccc(Cl)c1)c1ccc2c(c1)OCO2 | -4 | -6 | -2.9 | 4% | -45
COc1ccc(S(=O)(=O)N(CC(=O)NCC2CCCO2)c2ccccc2)cc1OC (stereo not given) | -4 | 10 | -0.6 | -6% | -22
Cc1cc2c(N=NC(=O)CCc3ccccc3)c(O)[nH]c2cc1Br | 3 | 2 | 3.7 | 13% | -24
CCn1c(SCC(=O)N/N=C/c2ccc(C)o2)nnc1-c1ccccc1 | -9 | -3 | -1.8 | -12% | -22
O=C(NCCCN=C1NS(=O)(=O)c2ccccc21)c1ccncc1 | ? | 6 | -2.3 | 5% | -18
Cc1cc(C2C(C#N)=C(N)SC(N)=C2C#N)c(C)s1 | -7 | 1 | 0.5 | / | -43
CCOc1ccc(NC(=O)[C@@H](NC(=O)c2ccco2)C(C)C)cc1 | -1 | / | 0.3 | / | /
Next results:
SMILES | Mtb bLac sens | Arbovirus anti | RecA intein inh | Mtb growth | YopH inh | others
O=C1C2CCCCC2C(=O)N1c1cccc(OS(=O)(=O)c2ccccc2)c1 (stereo not given) | -8 | 15 | 0.3 | -9% | -14
CCC(=O)c1c[nH]c(C(=O)NCc2ccccc2OC)c1 | -3 | / | -1.9 | / | /
CCNc1nc(SCC(=O)OC)nc(N2CCOCC2)n1 | -10 | 1 | -2.1 | -9% | -3
Cn1c(SCC(=O)NC(=O)NCc2ccco2)nnc1C(F)(F)F | 2 | 4 | 4.5 | / | -13
O=C1NC(=S)N(Cc2ccco2)C(=O)/C1=C\c1cccs1 | / | -3 | / | 3% | /
O=C(c1cc(-c2ccccn2)nc2c(Cl)cccc12)N1CCN(S(=O)(=O)c2ccccc2)CC1 | 10 | 5 | 9.3 | 22% | -14

Bioassay records (PubChem BioAssay)

The list is partial; count on the stated rates, not on these rows.
